Screens from PubChem BioAssay.
Mtb growth = Mycobacterium tuberculosis H37Rv growth inhibition, putative kinase inhibitor library, confirmatory dose response (AID 2842) | M. tuberculosis H37Rv growth inhibition; higher % means a stronger effect; some inactives read as strong as hits | inhibition, % at 10 µg/mL; hits with a dose series show IC90 in µg/mL | 24,000 compounds, 5.2% hits;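 active = confirmed in a dose series; about a fifth of its hits are not listed in these tables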;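 note: bacteria incubated one week before Alamar blue readout; 0% = bacteria only wells and 100% = bacteria with high antibiotic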
Active calls of the source: *. An excerpt (hit frequency here may not be typical).

`COc1cccc(CN2N=NC3C(=O)N(c4ccc(OC)c(OC)c4)C(=O)C32)c1` (stereo not drawn) gave Mtb growth -4%.
CCN1CCc2c(sc(NC(=O)c3ccc(Br)s3)c2C(N)=O)C1 was read as Mtb growth 8%.
For Cc1n[nH]c(C)c1N1C(=O)c2cccc3c(N4CCOCC4)ccc(c23)C1=O the results were Mtb growth -14%.
Screening O=C(Nc1ccc(Cl)c(Cl)c1)c1cnc2sccn2c1=O returned Mtb growth 0%.
Screening COc1ccc2nc(Nc3nc4ccc(S(C)(=O)=O)cc4s3)sc2c1 returned Mtb growth 71%.
`CC(C)c1nnc(NC(=O)c2ccccc2Cl)s1` gave Mtb growth -3%.
`Cc1ccc(C(c2c(O)cc(C)n(Cc3cccnc3)c2=O)N2CCN(c3ccccn3)CC2)cc1` (stereo not drawn) gave Mtb growth 1%.
For O=C(CC(=O)N/N=C/c1ccc(O)cc1)N/N=C\c1ccc(O)cc1 the results were Mtb growth -11%.
`O=C(Nc1nnc(-c2cc(Cl)ccc2Cl)o1)c1ccc(S(=O)(=O)N2CCCCCC2)cc1` gave Mtb growth 95%.
Screening Oc1ccc(Nc2nc(-c3ccccc3)c3cc(Cl)ccc3n2)cc1 returned Mtb growth -7%.
Screening CCOc1ccc2c(c1)c(=O)c(S(=O)(=O)c1ccc(C(C)C)cc1)cn2Cc1cccc(F)c1 returned Mtb growth 0%.
O=C(NCc1ccccc1Cl)NC1CC(=O)N(c2ccc(F)cc2)C1 (stereo not drawn) was read as Mtb growth 18%.
`O=C1c2c(O)ccc([N+](=O)[O-])c2C(=O)c2c(O)ccc([N+](=O)[O-])c21` gave Mtb growth 16%.
For Cc1cccn2c(=O)c(/C=N/O)c(NCCO)nc12 the results were Mtb growth 5%.
`O=C1NCCc2c(OCc3ccc(Cl)cc3Cl)cccc21` gave Mtb growth -11%.
For CCOc1cc(-c2cc(=O)c3cc(C)ccc3o2)ccc1O the results were Mtb growth 66%.
COc1ccc2cc(CCNC(=O)COc3ccccc3)c(=O)[nH]c2c1 was read as Mtb growth 0%.
Screening CCC(Sc1ccc2nnc(-c3ccc(F)cc3)n2n1)C(=O)O (stereo not drawn) returned Mtb growth -29%.
Screening c1ccc(-c2csc3ncnc(Sc4nnc5ccccn45)c23)cc1 returned Mtb growth 3%.
For COCCNC(=S)NCCc1cc2c(C)ccc(C)c2[nH]c1=O the results were Mtb growth 13%.

13 compounds from above, ordered by heavy-atom count, high to low.
`Cc1ccc(C(c2c(O)cc(C)n(Cc3cccnc3)c2=O)N2CCN(c3ccccn3)CC2)cc1` (stereo not drawn) gave Mtb growth 1%.
Screening CCOc1ccc2c(c1)c(=O)c(S(=O)(=O)c1ccc(C(C)C)cc1)cn2Cc1cccc(F)c1 returned Mtb growth 0%.
`O=C(Nc1nnc(-c2cc(Cl)ccc2Cl)o1)c1ccc(S(=O)(=O)N2CCCCCC2)cc1` gave Mtb growth 95%.
`COc1cccc(CN2N=NC3C(=O)N(c4ccc(OC)c(OC)c4)C(=O)C32)c1` (stereo not drawn) gave Mtb growth -4%.
For Cc1n[nH]c(C)c1N1C(=O)c2cccc3c(N4CCOCC4)ccc(c23)C1=O the results were Mtb growth -14%.
COc1ccc2cc(CCNC(=O)COc3ccccc3)c(=O)[nH]c2c1 was read as Mtb growth 0%.
O=C(NCc1ccccc1Cl)NC1CC(=O)N(c2ccc(F)cc2)C1 (stereo not drawn) was read as Mtb growth 18%.
`O=C1c2c(O)ccc([N+](=O)[O-])c2C(=O)c2c(O)ccc([N+](=O)[O-])c21` gave Mtb growth 16%.
For COCCNC(=S)NCCc1cc2c(C)ccc(C)c2[nH]c1=O the results were Mtb growth 13%.
For CCOc1cc(-c2cc(=O)c3cc(C)ccc3o2)ccc1O the results were Mtb growth 66%.
`O=C1NCCc2c(OCc3ccc(Cl)cc3Cl)cccc21` gave Mtb growth -11%.
For Cc1cccn2c(=O)c(/C=N/O)c(NCCO)nc12 the results were Mtb growth 5%.
`CC(C)c1nnc(NC(=O)c2ccccc2Cl)s1` gave Mtb growth -3%.

The list continues.
For Cc1ccc2cc(CCNC(=O)c3cc4ccccc4oc3=O)c(=O)[nH]c2c1C the results were Mtb growth 3%.
Screening O=C(Nc1nnc(-c2ccc3c(c2)CCCC3)o1)c1ccco1 returned Mtb growth 0.87µg/mL*.
Screening COc1cccc2cc(C(=O)Nc3ccc(F)cc3)c(=O)oc12 returned Mtb growth 1%.
Cc1ccc(S(=O)(=O)N2CCCC(C(N)=O)C2)cc1 (stereo not drawn) was read as Mtb growth -2%.
O=C(Nc1nnc(-c2ccncc2)o1)c1cccc(Oc2ccccc2)c1 was read as Mtb growth 82%.
For CC1CCN(c2nc3c(c(=O)[nH]c(=O)n3C)n2CCSc2nnnn2-c2ccccc2)CC1 the results were Mtb growth -1%.
Cc1nccn1CC(=O)N/N=C/c1ccc(O)c(O)c1 was read as Mtb growth 1%.
NC(=O)Cc1nc(-c2ccc([N+](=O)[O-])cc2)cs1 was read as Mtb growth 3%.
CCCCOc1ccc(C(=O)Nc2sc3c(c2C(=O)OCC)CCN(C(C)=O)C3)cc1 was read as Mtb growth 42%.
`O=C(O)c1cc(-c2cccnc2)nc2ccccc12` gave Mtb growth -16%.
Screening COC(=O)c1ccc(CSc2nc(-c3ccc(OC)cc3)nc3c2c(=O)n(C)c(=O)n3C)o1 returned Mtb growth 1%.
COc1ccc2cc(CCNC(=O)c3cc([N+](=O)[O-])ccc3Cl)c(=O)[nH]c2c1 was read as Mtb growth -1%.
`CCc1cccc(C)c1NC(=S)NCCc1cc2c(OC)ccc(OC)c2[nH]c1=O` gave Mtb growth 7%.
Cc1ccc(S(=O)(=O)c2cnc(SCC(=O)Nc3ccccc3F)[nH]c2=O)cc1 was read as Mtb growth -22%.
CCCCOc1ccc(/C=C(\C#N)c2nc3ccccc3c(=O)[nH]2)cc1 was read as Mtb growth 0%.
CCc1ccc(NC(=O)CSc2nc3c(c(=O)n2-c2ccc(C)cc2)SCC3)cc1 was read as Mtb growth 2%.
For O=C(Nc1ccncc1NC(=O)c1cccc([N+](=O)[O-])c1)c1cccc([N+](=O)[O-])c1 the results were Mtb growth -7%.
For O=C(C1CCCCC1)N1CCN(c2ccc(N3CCOCC3)nn2)CC1 the results were Mtb growth -17%.
Screening CCOc1ccccc1-n1nnc(C(=O)Nc2cccc(C(C)=O)c2)c1C returned Mtb growth 9%.
`O=C(COc1ccc2c3c(c(=O)oc2c1)CCCC3)Nc1cc(C(F)(F)F)ccc1Cl` gave Mtb growth 1%.

The closing 2 entries of the section before lead into the next.
Screening CCOc1ccccc1-n1nnc(C(=O)Nc2cccc(C(C)=O)c2)c1C returned Mtb growth 9%.
`O=C(COc1ccc2c3c(c(=O)oc2c1)CCCC3)Nc1cc(C(F)(F)F)ccc1Cl` gave Mtb growth 1%.
For O=C(Nc1nnc(-c2ccccc2)s1)c1ccccc1C(F)(F)F the results were Mtb growth 1%.
Screening COc1ccc2cc(CCNC(=O)c3cccc(C)c3)c(=O)[nH]c2c1 returned Mtb growth 4%.
For Cc1ccc(C(=O)Oc2cc(N)n(S(=O)(=O)c3ccc(C)cc3)n2)cc1 the results were Mtb growth 7%.
CNc1nc(NCc2ccccc2)nc(N)c1[N+](=O)[O-] was read as Mtb growth 2%.
Screening Nn1c(SCc2ccc(Cl)c(Cl)c2)nnc1-c1ccccc1Cl returned Mtb growth 14%.
For Cn1c(=O)[nH]c(=O)c2c1nc(SCC(=O)OCc1ccccc1)n2Cc1ccccc1 the results were Mtb growth -5%.
Screening Cc1ccc2cc(CCNC(=O)c3ccccc3)c(=O)[nH]c2c1 returned Mtb growth -6%.
COc1cc2c(=O)c(C(=O)c3ccc(C)cc3)cn(CC(=O)Nc3ccc(F)cc3)c2cc1OC was read as Mtb growth -6%.
For Cc1nc2ccc3nc(NC(=O)/C=C/c4cccs4)sc3c2s1 the results were Mtb growth 0%.
Screening O=C(c1ccco1)N1CCN=C1SCc1cccc(F)c1 returned Mtb growth -7%.
Screening Cc1cc(C)c2sc(N3CCN(c4ccccc4)CC3)nc2c1 returned Mtb growth -5%.
Screening Cc1ccccc1-c1n[nH]c(=O)o1 returned Mtb growth 5%.
For C/C=C/Cn1c(Sc2nc3ccccc3[nH]2)nc2c1c(=O)[nH]c(=O)n2C the results were Mtb growth -1%.
`CCc1ccc(NC(=O)c2oc3ccccc3c2NC(=O)CCCl)cc1` gave Mtb growth 9%.
Screening O=C1CCc2cc(NS(=O)(=O)c3ccc4c(c3)OCCO4)cc3c2N1CC3 returned Mtb growth -5%.
O=C(CSc1nc2[nH]ncc2c(=O)[nH]1)NCC1CCCO1 (stereo not drawn) was read as Mtb growth -8%.
CCc1nnc(NC(=O)CSc2nc3c(c(=O)n2C)SC(C)C3)s1 (stereo not drawn) was read as Mtb growth -2%.
Screening Cc1cc(C)c2nc(N(CCCn3ccnc3)C(=O)c3cccs3)sc2c1 returned Mtb growth 1.4µg/mL*.
CC(C)(C)c1ccc(-n2c(=O)[nH]c3c(C(N)=O)nc(-c4cccs4)nc32)cc1 was read as Mtb growth 13%.
Cc1ccc(-n2nc3c(c2NC(=O)C2CCCC2)CS(=O)C3)cc1 (stereo not drawn) was read as Mtb growth -6%.
Cc1ccc2nc(NC(=O)CSc3nc4c(c(=O)n3Cc3ccccc3)SC(C)C4)sc2c1 (stereo not drawn) was read as Mtb growth 47%.
CC1(C)CC(=O)c2sc(NC(=O)c3ccc(NS(=O)(=O)c4ccc(Cl)cc4)cc3)nc2C1 was read as Mtb growth 16µg/mL*.
For CCOC(=O)Cc1csc(NC(=O)c2cc3c(=O)n4ccccc4nc3s2)n1 the results were Mtb growth -7%.
O=C(COc1ccccc1Cl)Nc1ncc(Cc2ccccc2)s1 was read as Mtb growth 16%.
For O=C(Nc1c(C(=O)Nc2ccc([N+](=O)[O-])cc2)oc2ccccc12)c1ccc(C(F)(F)F)cc1 the results were Mtb growth 4%.
Screening Cc1cccc(NC(=O)C2C(=O)CN(c3ccccc3)C2=O)c1 (stereo not drawn) returned Mtb growth -3%.
`COc1cccc2sc(NC(=O)c3ccc(C(=O)c4ccccc4)cc3)nc12` gave Mtb growth 11%.
Screening COc1ccccc1CNc1ncnc(N)c1[N+](=O)[O-] returned Mtb growth -9%.
Screening O=C1CC(Nc2ccc(F)cc2)C(=O)N1c1ccc(N2CCOCC2)cc1 (stereo not drawn) returned Mtb growth -1%.
O=C(Cc1cc(=O)[nH]c(=O)[nH]1)NCCCO was read as Mtb growth 1%.
Screening O=C(CC1CCS(=O)(=O)C1)Nc1ccc(Cl)c(Cl)c1 (stereo not drawn) returned Mtb growth 1%.
`COc1ccc(-c2ccc(/C=C3/SC(=S)N(CC(=O)O)C3=O)o2)cc1` gave Mtb growth 47%.
CCOC(=O)C(C)Oc1cccc2c(=O)n(CC(=O)N3CCN(C(=O)OCC)CC3)ccc12 (stereo not drawn) was read as Mtb growth -1%.
`O=C(CSc1nnc2ccc(-c3cccc([N+](=O)[O-])c3)nn12)NCc1ccc2c(c1)OCO2` gave Mtb growth -2%.
Screening COc1ccccc1NCC(=O)Nc1ncc(Cc2ccc(Cl)c(Cl)c2)s1 returned Mtb growth -6%.
`CCc1ccccc1NC(=O)CSc1nccn(-c2ccc(F)cc2)c1=O` gave Mtb growth -9%.
For Cn1c(=O)c2c(SCC(=O)c3ccc(Cl)cc3)nc(-c3cccs3)nc2n(C)c1=O the results were Mtb growth 11%.
COc1ccc2cc(CCNC(=S)Nc3ccccc3F)c(=O)[nH]c2c1 was read as Mtb growth 13%.
`CC1CCc2c(sc3ncnc(SCC(=O)Nc4ccc(F)cc4)c23)C1` (stereo not drawn) gave Mtb growth 6%.
Screening Cc1ccc2nc(NNC(=O)c3cc4ccccc4oc3=O)sc2c1 returned Mtb growth 1.8µg/mL*.
O=C1/C(=C/c2ccccc2Cl)Oc2cc(O)ccc21 was read as Mtb growth -2%.
For O=C(Nc1ccncc1)c1ccc(=O)n(Cc2ccccc2F)c1 the results were Mtb growth 7%.
For Cc1ccc2oc(-c3ccccc3)cc(=NCCO)c2c1 the results were Mtb growth 10%.
Screening CCCCOc1ccc(C(=O)Oc2cc(C)[nH]c(=O)c2[N+](=O)[O-])cc1 returned Mtb growth 57%.
`COc1ccc(CC(=O)Nc2ccc(-c3cn4nc(OC)ccc4n3)cc2)cc1` gave Mtb growth -2%.
Screening COc1ccc(NC(=O)CSc2ccnc3c2c(=O)n(C)c(=O)n3C)cc1 returned Mtb growth -3%.
CN(C)Cc1c(O)c(Cl)cc2c3c(c(=O)oc12)CCCC3 was read as Mtb growth -10%.
For O=C(O)c1ccc(S(=O)(=O)NCc2ccccn2)cc1 the results were Mtb growth -1%.
Screening COc1ccc(OC)c2[nH]c(=O)c(CCNC(=O)c3cccc(C(F)(F)F)c3)cc12 returned Mtb growth 12%.
Screening N#CCOc1ccc2c(-c3cc4ccccc4oc3=O)cc(=O)oc2c1 returned Mtb growth -16%.
Screening O=c1cc(Cc2n[nH]c(=S)n2-c2ccccc2)[nH]c(=O)[nH]1 returned Mtb growth 4%.
For CCCCn1c(SCc2ccccc2)nc2c1c(=O)[nH]c(=O)n2C the results were Mtb growth 38%.
O=C(NC1CC(=O)N(c2ccc3c(c2)OCCO3)C1)N1CCN(c2ccc([N+](=O)[O-])cc2)CC1 (stereo not drawn) was read as Mtb growth 6%.
CC(=O)Nc1c(C(=O)Nc2ccc(C)c(C)c2)oc2ccccc12 was read as Mtb growth -6%.
Screening O=C(CSc1nc2c(c(=O)n1-c1ccccc1)SCC2)Nc1nccs1 returned Mtb growth -2%.
Cc1nc2sc(C(c3ccccc3)N3CCC(C(N)=O)CC3)c(O)n2n1 (stereo not drawn) was read as Mtb growth -6%.
Cn1c(=O)c2c(nc(SCC(=O)c3ccccc3)n2Cc2ccc(F)cc2)n(C)c1=O was read as Mtb growth 32µg/mL*.
For COc1cccc(CNc2nccn(-c3ccc(C)c(F)c3)c2=O)c1 the results were Mtb growth 17%.
O=C(Cn1cnc2c(cnn2-c2ccccc2)c1=O)NCc1ccc(F)cc1 was read as Mtb growth 6%.
